# Compound activity: PubChem, several laboratories
# PrP 5UTR inh: inhibition of PrP 5' UTR reporter expression; hit rate 0.35% among 340,000; AID 488862; inhibition, % (test concentration not listed); cell-based PrP 5' UTR mRNA reporter, plate reader;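 active = every replicate at 50% or more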;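 note: 0 = median of the neutral control wells; tested in H4 reporter cells; numbers are from one replicate; inactives centre near -14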
# Autofluor counter: flagged as autofluorescent in microsphere protease counterscreen; AID 624483; compound autofluorescence counterscreen, microsphere flow cytometry; stronger effect = higher value; hit rate 3.1% among 360,000; fluorescence intensity (concentration not given with the values);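 active = at least 3 SD above the mean of all compounds, about 16000 in these data; inconclusive = too few beads counted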;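 note: 100 nL of 1 mM stock went into each well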
# Mtb hypoxia rep: Mtb hypoxia fluorescent reporter inhibition | M. tuberculosis hypoxia-regulated fluorescent reporter, fluorescence | fluorescence inhibition, % (no concentration beside the values) | hit rate 0.1% among 300,000 | AID 1159583;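 active = 35 to 45% if threefold the growth effect, above 45% if 1.5-fold the growth effect; inactive = the rest, general growth blockers included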;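 note: wells of about 50 µL received 100 nL stock; 0% = vehicle wells and 100% = reference inhibitor wells; whole bacteria with a GFP reporter of the hypoxia response; strong numbers were not always called active; many hits fall short of the cut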
# BJeLR lethal: BJeLR cell viability loss; BJeLR (HRASV12) viability, CellTiter-Glo ATP luminescence, 48 h; reference of the scale not given here; inhibition, % (no concentration beside the values); hit rate 0.17% among 300,000; AID 1554;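 active = replicate mean above 50%; inconclusive = above 50% but judged a plate artefact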;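 note: 50 nL library stock added to about 25 µL; numbers are from one replicate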
# Sa RN4220 lethal: S. aureus RN4220 growth inhibition | AID 1259311 | inhibition, % (test concentration not listed) | hit rate 0.33% among 330,000 | OD600, 16 h;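 active = z-score of -3 or lower and OD600 up to 0.18 on both plates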;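 note: plate controls were untreated cells for no effect and reference antibiotic for full effect; stock transfer was 100 nL into about 80 µL; one replicate is shown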
# ugtP null kill: compounds lethal to S. aureus RN4220 ugtP deletion mutant; OD600 growth, 16 h; some inactives read as strong as hits; growth inhibition, % (concentration not given with the values); hit rate 0.54% among 330,000;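 active = z-score under -3 and OD600 up to 0.15 on both plates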;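 note: plate controls were untreated wells for no effect and antibiotic for full effect; wells of about 80 µL received 100 nL stock; the first replicate is given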
# Mtb hypoxia rep growth: second read-out of Mtb hypoxia rep, no call of its own (marks repeat the call); growth inhibition, %; measured here: M. tuberculosis growth (absorbance);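 0% = vehicle and 100% = reference antibiotic; read after six days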
# * marks the source's active call; other numbers are inactive results; ? = inconclusive; / = no result given; & = joins results of further samples.
SMILES,PrP 5UTR inh,Autofluor counter,Mtb hypoxia rep,Mtb hypoxia rep growth,BJeLR lethal,Sa RN4220 lethal,ugtP null kill
O=C1CCC(=O)N1CN(C(=O)c1ccco1)c1ccc(Cl)c(Cl)c1,-6,2324,/,/,-17,4.0,7
O=C(Nc1cccnc1)c1ccc(S(=O)(=O)c2ccccc2)cc1,-26,2189,2,-4,5,4.2,7
O=C(COC(=O)/C=C/c1cccc(Cl)c1)Nc1ccc(N2CCOCC2)cc1,-21,3625,12,11,/,2.8,6
CCOc1cc(/C=C2\SC(=S)N(Nc3ccccc3)C2=O)ccc1O,-20,3712,/,/,0,7.6,-11
CCn1cnnc1SCC(=O)NCC1COc2ccccc2O1 (stereo not drawn),-20,3688,-2,0,/,2.4,1
COc1ccc(-c2cc(C(F)(F)F)nc(SCCC(=O)Nc3cc(C)on3)n2)cc1,-11,2746,15,4,1,-10,0
N#CCCn1ncn(-c2ccccc2)c1=S,-25,4888,/,/,3,3.5,0
CCCC[N+]12CCC(CC1)C(C(O)(c1ccccc1)c1ccccc1)C2 (stereo not drawn),-23,4141,/,/,-2,/,/
O=C(c1c(F)cccc1F)N1CCCC(c2nc(-c3ccc(F)cc3)no2)C1 (stereo not drawn),-19,2905,-1,2,5,3.5,8
COc1ccccc1C(CNC(=O)CN(C)S(=O)(=O)c1ccc(C)cc1)N1CCCC1 (stereo not drawn),0,8895,-3,4,/,4.0,4
Cn1cc(/C=N/NC(=O)c2cccc([N+](=O)[O-])c2)c2ccccc21,-5,9925,/,/,13,/,/
Oc1ccc(-c2c(C3=CCCCC3)sc3ccccc23)cc1,-4,4065,/,/,7,/,/

# Single values from above:
# Value of O=C(COC(=O)/C=C/c1cccc(Cl)c1)Nc1ccc(N2CCOCC2)cc1 in Mtb hypoxia rep growth: 11
# Value of Oc1ccc(-c2c(C3=CCCCC3)sc3ccccc23)cc1 in PrP 5UTR inh: -4
# Value of O=C(Nc1cccnc1)c1ccc(S(=O)(=O)c2ccccc2)cc1 in Autofluor counter: 2189
# Value of CCn1cnnc1SCC(=O)NCC1COc2ccccc2O1 (stereo not drawn) in PrP 5UTR inh: -20

# The results go on.
SMILES,PrP 5UTR inh,Autofluor counter,Mtb hypoxia rep,Mtb hypoxia rep growth,BJeLR lethal,Sa RN4220 lethal,ugtP null kill
Cn1ccc(C(=O)OCC(=O)Nc2cccc3ccccc23)n1,-13,3046,5,1,12,0.3,4
CCCCn1c(N)c(N(CC)C(=O)c2cccc(S(=O)(=O)N3CCN(C)CC3)c2)c(=O)[nH]c1=O,-4,?,2,-2,-3,2.4,2
Cc1cc(C)c(C)c(S(=O)(=O)NCCN2CCOCC2)c1C,-23,4259,10,-3,-8,3.9,6
Cc1cc(C)nc(SCC(=O)Nc2ncc(Cc3cccc(Cl)c3Cl)s2)n1,1,8786,1,7,-7,-4.1,-15
CSc1ncccc1C(=O)OCC(=O)C(C)(C)C,-18,4095,2,-5,-8,-4.0,-9
Cc1cc(C(=O)NC(=S)Nc2ccccc2N2CCOCC2)ccc1[N+](=O)[O-],-22,2411,8,4,-1,4.1,54
COCCNC(=O)/C(C#N)=C/c1cc(C)n(C2CCCCC2)c1C,-17,4293,4,7,6,3.5,-4
CC(C)(C)c1ccc(C(=O)Nc2ccc(C(=O)NCc3cccnc3)cc2)cc1,1,6545,-10,-2,82*,2.0,-3
COc1ccc(CNC(=O)C/C(C)=N/NC(=O)Cc2ccc(OC)c(OC)c2)cc1,-14,2176,/,/,-6,/,/
O=C(NC1CCCCC1)N1CCc2ccccc2C1,-40,3842,21,24,-16,-3.1,-4
CC(=O)N1CCc2cc([N+](=O)[O-])ccc21,-12,3571,7,8,/,3.1,6
C=CCOc1ccc(/C(CC)=N/O)c(OC)c1,-11,23301*,/,/,-2,/,/
CCCc1cc(CNC(=O)C2CCC(=O)N(Cc3ccccc3F)C2)on1 (stereo not drawn),-10,6169,/,/,-10,/,/
CC(=O)O[C@H]1CC[C@@]2(C)C(CCC3C2CC[C@]2(C)OC(=O)CCC32)C1 (stereo partly drawn),-31,3956,11,14,-3,5.7,1
O=C(NCc1cccnc1)c1cccn2c(=O)c3sccc3nc12,-10,3442,1,1,-9,7.3,3
O=C(Cn1ncc(N2CCOCC2)c(Cl)c1=O)c1ccc(Cl)cc1,-28,4147,4,-2,3,0.6,6
FC(F)(F)c1ccc(Cl)c(NC(=S)NC2CC2)c1,-30,8108,4,4,5,3.5,3
COc1ccc2sc(-c3ccc(S(C)(=O)=O)cc3)c(C(=O)NCCc3c[nH]c4ccccc34)c2c1,-1,3782,2,2,/,2.3,5
Cc1cccc2c1OCCC2=NNC(=O)COc1ccccc1Cl,/,/,0,-2,/,1.9,-11
CCCCC1(CCCC)NC(=S)N(Nc2ccc(C)cc2)C1=O,-26,12313,5,10,-1,6.6,-7
Cc1cc(C)nc(SCC(=O)Nc2ncc3c(n2)CCCC3=O)n1,-9,8609,16,8,-18,8.6,-3
CCN(CC)c1ccc(Nc2cc3n(c(=O)n2)CCc2cc(OC)c(OC)cc2-3)cc1,1,3810,0,1,-26,-1.1,8
COCCNC(=O)CN(CCc1ccccc1)S(=O)(=O)c1ccc(Br)cc1,-1,3913,-14,0,-8,-0.2,-6
Cc1ccc(Nc2ncnc3sccc23)c(C)c1,-12,3091,8,-2,1,-1.9,-8
Cc1ccccc1CC(=O)NCCN1CCCCC1,-5,3307,0,-4,-1,5.0,11
Cc1ccccc1NC(=O)c1cnn(-c2ccccc2)c1NC(=O)c1ccco1,9,9310,-7,-10,2,-1.2,-2
N#Cc1c(NC(=O)/C=C/C(=O)O)sc2c1CCN(Cc1ccccc1)C2,-29,6612,-8,1,4,2.4,-6
Cc1cccc(OCC(=O)Nc2ccc(N3CCN(C(=O)c4ccccc4)CC3)cc2)c1C,-3,5339,9,16,0,0.6,-8
COC(=O)c1ccc(CN2CCN(C3CCCC3)C(CCO)C2)cc1 (stereo not drawn),-27,2244,3,5,13,0.7,12
Cc1c(NC(=O)OCCNC(=O)COc2ccc(Cl)cc2Cl)sc(=S)n1C,-19,1922,5,3,9,0.2,9
CC(=O)OC1CC[C@@]2(C)C(CCC3C4CCC(C(C)O)[C@@]4(C)CC(=O)C32)C1 (stereo partly drawn),/,/,3,4,/,3.2,-13
O=C(NCc1ccco1)c1cc(-c2ccccc2)nc2ccccc12,-14,2724,/,/,0,0.8,4
COC(=O)COc1ccc(S(=O)(=O)N2CCN(c3ccccc3F)CC2)cc1C,-20,8841,8,7,-6,0.8,2
Cc1ccc(OCC(O)CNC(=O)c2ccccc2C(=O)O)cc1 (stereo not drawn),-22,4245,/,/,6,1.7,9
O=[N+]([O-])c1ccc(NN=C2CCCCC2)c([N+](=O)[O-])c1,-33,3697,9,12,/,1.5,1
COc1cc(/C=N/NC(=O)C2CCN(CC(O)COCc3ccccc3)CC2)ccc1O (stereo not drawn),-14,1941,/,/,7,/,/

# The closing 2 compounds of the section above are carried over, then new ones follow:
SMILES,PrP 5UTR inh,Autofluor counter,Mtb hypoxia rep,Mtb hypoxia rep growth,BJeLR lethal,Sa RN4220 lethal,ugtP null kill
O=[N+]([O-])c1ccc(NN=C2CCCCC2)c([N+](=O)[O-])c1,-33,3697,9,12,/,1.5,1
COc1cc(/C=N/NC(=O)C2CCN(CC(O)COCc3ccccc3)CC2)ccc1O (stereo not drawn),-14,1941,/,/,7,/,/
O=C(C1=C[C@H](C2CCCCC2)C[C@H](OCCCCO)O1)N1CCN(Cc2ccc3c(c2)OCO3)CC1,-7,2793,/,/,-4,/,/
CCOC(=O)N1CCN(C(=O)c2ccc3c(c2)ncn3C2CCCC2)CC1,-13,12046,1,6,-1,2.5,-1
COc1cccc(N(C(=O)CS(=O)CC(=O)Nc2ccc(F)cc2)C(C(=O)NC2CCCCC2)c2cccs2)c1 (stereo not drawn),-13,1970,-5,1,4,-2.6,1
COc1ccc(CCNC(=O)CC(C)=NNC(=O)c2ccc([N+](=O)[O-])cc2Cl)cc1OC,/,/,-3,7,/,0.1,0
COc1cc2c(cc1OC)CN(Cc1ccccc1)CC2,-13,4126,-6,8,0,3.6,6
CCOC(=O)CSc1nnc([C@@H](NC(=O)OC(C)(C)C)C(C)C)o1,-2,4477,/,/,5,0.7,10
Cc1ccccc1C=O,-2,4338,-1,-2,/,6.3,12
O=C(Nc1ccc(N2CCOCC2)cc1)C1CC(=O)N(c2ccccc2)C1 (stereo not drawn),-18,2080,-4,-5,3,1.8,-1
CC(=O)C[C@H]1c2cc(F)ccc2S(=O)(=O)N1c1ccc(N(C)C)cc1,-38,4024,/,/,-4,/,/
COc1ccc(CCNC(=O)CN2C(=O)c3cccc4cccc(c34)C2=O)cc1OC,-17,2258,14,3,-1,7.3,-5
CCc1ccc(OCC(=O)NNC(=O)CNC(=O)c2ccc(Br)o2)cc1,-30,3865,-11,8,/,-6.7,-1
COC(=O)C(CC(=O)c1ccc(C)cc1)n1nc(C)cc1C (stereo not drawn),-18,3490,8,-3,12,4.0,5
Cc1ccc(S(=O)(=O)N2CCCC2CNC(=O)c2ccc(F)c(F)c2)cc1 (stereo not drawn),5,?,-3,8,8,-2.8,-4
CCN(c1ccccc1C)S(=O)(=O)c1cc2c3c(c1)CCN3C(=O)CC2,-20,5033,0,-6,10,12,3
Cc1ccc(C)c(N2CCN(C(=O)Cc3c(C(=O)O)[nH]c4ccc(Cl)cc34)CC2)c1,-9,4418,-9,6,-6,-0.2,13
CCOC(=O)C1CCN(c2c(NCCCN(CC)c3ccccc3)c(=O)c2=O)CC1,11,21430*,2,1,1,0.5,8
Cc1ccc(S(=O)(=O)Nc2ccc(OCC(=O)N3CCOCC3)cc2)c(C)c1NS(C)(=O)=O,1,3850,-12,-4,9,1.5,-2
O=C(COc1ccccc1[N+](=O)[O-])N/N=C/c1ccc(OC(=O)c2ccco2)cc1,-51,10053,/,/,3,/,/
COc1cc2c(=O)n(Cc3ccccc3)c(=O)n(CC(=O)NCCc3ccccc3)c2cc1OC,-25,3379,-4,2,-3,-3.8,11
O=C(Nc1cccc(Cl)c1)OCc1ccccn1,-26,2940,8,11,-23,4.7,-17
CCOc1ccc(S(=O)(=O)N2CCN(c3ccccn3)CC2)cc1,-6,3863,2,-3,0,3.6,9
Cc1ccc(C(=O)OCC(=O)N(Cc2ccccc2)C(C)C)cc1C,0,3016,7,1,/,5.5,15
CCc1c(C(=O)NCCc2cccc(C)c2)[nH]c(C)c1C(C)=O,-27,3831,/,/,6,/,/
CC(C)(C)c1ccc(C(=O)CSc2nc3ccccc3c(=O)[nH]2)cc1,-13,10936,1,5,-4,5.6,4
CCOc1ccc(CN(C)C(C)C(=O)NCCc2ccc(F)cc2)cc1 (stereo not drawn),-23,4842,-3,4,0,-1.5,3
COC(=O)[C@H](CC(C)C)NC(=O)N1CCCCC1,-24,/,1,10,-5,2.8,6
Cc1ccc2c(c1)c1c(n2CC(O)CNC2CCCCC2)CCCC1 (stereo not drawn),9,6247,/,/,9,-11,5
O=c1[nH]c2ccccc2c(O)c1-[n+]1ccccc1,-18,4714,-6,-5,-1,6.1,1
CC1(c2ccccc2)CC(C)(C)N(C(=O)C2CCCO2)c2ccccc21 (stereo not drawn),5,4725,14,5,-7,14,12
Cc1ccc2c(c1)C1CN(C)CCC1N2S(=O)(=O)c1ccccc1 (stereo not drawn),-32,11124,2,-2,-4,-1.4,2
COCCN(Cc1cc2ccc(C)c(C)c2nc1Cl)C(=O)N1CCOCC1,-13,4240,11,2,-2,6.8,5
CCC(C)(C)n1nnnc1C(c1ccc(OC)c(OC)c1)N1CCN(c2ccccc2)CC1 (stereo not drawn),-11,4857,/,/,1,1.8,10
CCOc1ccccc1NC(=O)c1cc(SC)ccc1Cl,-24,4374,7,7,-7,5.0,7
CNC(=O)c1ccc(Nc2nnc(-c3ccc(O)cc3)c3ccccc23)cc1,-1,4240,-20,-2,-3,1.0,-2
O=C(NC(=S)Nc1ccc(S(=O)(=O)Nc2nccs2)cc1)c1ccc(F)cc1,-26,2310,/,/,-3,/,/
O=C(NCCN1CCN(c2ccccc2F)CC1)C1CC(=O)N(C2CCCC2)C1 (stereo not drawn),-11,10460,5,6,1,2.5,-1
COCCn1c(SCC(=O)N2CCOCC2)nc2c(c1=O)SCC2,-17,6181,1,-6,3,1.8,8
C/C(N)=C(/C#N)C(=O)COC(=O)c1cc(-c2ccc(Br)cc2)nc2ccccc12,10&4,3721&2340,9&-6,5&17,-5,27&41,19&25
CCCCc1ccc(NC(=S)NCCN2CCOCC2)cc1,2,2244,13,13,-9,5.5,-9
Cc1ccc2sc(C)[n+](CCO)c2c1,-11,4429,-7,5,19,0.3,16
